RE007 growth inh: less growth of the S. pombe RE007 Vpr strain. S. pombe RE007 Vpr strain, BacTiter-Glo ATP luminescence, 24 h; control for the full effect not named in the record. Potency, µM (top dose mostly 92.2 µM), inactives show top-dose activity change, negative = less growth. 0.21% of 360,000 active. AID 651644; active = well fitted falling curve with a large enough effect; inconclusive = small, poorly fitted or top-dose-only effect; inactive = no such curve, though single readings can be large or run the other way;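 also: % is scaled to controls: 0 for no effect and ±100 for the full control effect; nearly all actives have a fitted effect of over 50% in size; the assay follows cell death caused by Vpr and the record does not say whether a fall means rescue or toxicity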
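Fission yeast RE007 carrying one integrated HIV-1 vpr copy, seeded at OD 0.01 in PMG+AL medium with 23 nL pinned compound. Grown 24 h at 30 degrees; viability read by BacTiter-Glo luminescence after 5 min.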
SARS PLP yeast: SARS-CoV PLP inhibition in yeast; Potency, µM (top dose mostly 32.9 µM), without a hit: at the top dose activity, positive = growth rescue; S. cerevisiae expressing SARS-CoV PLpro, growth rescue; control for the full effect not named in the record; 0.19% of 330,000 active; active means well fitted rising curve with a large enough effect; inconclusive means small, poorly fitted or top-dose-only effect; inactive means no such curve, though single readings can be large or run the other way; also: 0% is about no effect; nearly all actives have a fitted effect of over 55% in size; growth read by luminescence after 48 h
MARV entry inh: Marburg virus entry inhibition. 1.8% of 300,000 active. Potency, µM (doses to about 37.8 µM), inactives show at the top dose activity change, negative = inhibition, hits mostly inhibitors. Marburg virus pseudotyped entry inhibition, cell reporter; control for the full effect not named in the record; about a third of the inactives were read at about 46 µM; active = well fitted inhibition curve with a large enough effect; inconclusive = small, poorly fitted or top-dose-only effect, or effect the other way; inactive = flat fitted curve, though single readings scatter; tested in HEK293 cells; about a fifth of its hits are not listed in these tables; also: % is scaled to controls: 0 for no effect and ±100 for the full control effect; luciferase read-out
Cruzain Triton: inhibitors of Trypanosoma cruzi cruzain with detergent | P25779 | 0.43% of 200,000 active | purified cruzain, Z-FR-AMC fluorescence, 0.01% Triton | Potency, µM, for inactives: max response, negative = inhibition, actives largely listed as inhibitors;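 also: plate controls were neutral wells for no effect and buffer without enzyme for full effect; nearly all actives have a fitted effect of over 40% in size; top concentration of the series not given in the record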
Target sequence (P25779 123-467 limits assumed): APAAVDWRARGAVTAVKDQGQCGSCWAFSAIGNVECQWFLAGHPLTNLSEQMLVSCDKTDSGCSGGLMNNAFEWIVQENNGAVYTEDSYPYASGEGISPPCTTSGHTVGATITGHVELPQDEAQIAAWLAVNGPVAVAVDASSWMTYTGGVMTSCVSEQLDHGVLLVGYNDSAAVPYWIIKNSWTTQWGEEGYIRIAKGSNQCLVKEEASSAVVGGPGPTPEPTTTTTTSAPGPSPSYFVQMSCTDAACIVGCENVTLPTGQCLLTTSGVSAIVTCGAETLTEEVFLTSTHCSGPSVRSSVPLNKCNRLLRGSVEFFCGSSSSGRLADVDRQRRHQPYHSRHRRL
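15 min RT preincubation of 1.5 nM cruzain with compound, then 2 uM Z-FR-AMC added; kinetic AMC fluorescence, 60 s delta. Triton X-100 0.01%, pH 5.5.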
Cruzain noTriton: cruzain (T. cruzi) inhibition without detergent; P25779; purified cruzain, Z-FR-AMC fluorescence, no detergent; Potency, µM, for the others: max response, negative = inhibition, usual class: inhibitors; 2.3% of 200,000 active;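 also: plate controls were enzyme without inhibitor for no effect and buffer without enzyme for full effect; nearly all actives have a fitted effect of over 40% in size; top concentration of the series not given in the record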
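Purified cruzain at 1.5 nM, pre-incubated 15 min with compound at room temperature in 100 mM sodium acetate pH 5.5, 5 mM DTT, 0.00005% Triton X-100. Reaction started with 2 uM Z-FR-AMC; AMC fluorescence increase over 60 s gives rate.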
NS1 function inh: blocks influenza NS1 protein function; AID 2326; S. cerevisiae slowed by influenza A NS1, growth recovery by OD600; 0.4% of 270,000 active; Potency, µM (top dose mostly 46.1 µM), for the others: at the highest dose activity, positive = more growth; active means well fitted rising curve with a large enough effect; inconclusive means small, poorly fitted or top-dose-only effect; inactive means no such curve, though single readings can be large or run the other way; also: nearly all actives have a fitted effect of over 50% in size
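In this qHTS, NS1 from influenza A is expressed in budding yeast, where it slows growth. Cells are switched from glucose to 2% galactose medium (pH 6.0, -URA), treated with compound, and growth recovery is read at OD600.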
StopGo reporter: FMDV 2A StopGo reporter, luciferase signal | human cells with a luciferase reporter of 2A StopGo recoding; control for the full effect not named in the record | Potency, µM (highest dose often 57.9 µM), without a hit: at the top dose signal change, negative = less light | 1.2% of 410,000 active | AID 1159524; active = well fitted falling curve with a large enough effect; inconclusive = small, poorly fitted or top-dose-only effect; inactive = no such curve, though single readings can be large or run the other way; tested in HEK293T cells; also: % is scaled to controls: 0 for no effect and ±100 for the full control effect; nearly all actives have a fitted effect of over 45% in size; luciferase light after 4 h
Lassa entry inh: blocks Lassa virus binding to or entry into cells. Lassa virus pseudotype entry inhibition, cell reporter; control for the full effect not named in the record. Potency, µM (top dose mostly 37.9 µM), for inactives: top-dose activity change, negative = inhibition, hits mostly inhibitors. 1.2% of 300,000 active. AID 540256; active means well fitted inhibition curve with a large enough effect; inconclusive means small, poorly fitted or top-dose-only effect, or effect the other way; inactive means flat fitted curve, though single readings scatter; tested in HEK293 cells; also: % is scaled to controls: 0 for no effect and ±100 for the full control effect; nearly all actives have a fitted effect of over 50% in size; luciferase read-out
* hit, by the source's call; ? = inconclusive; · = no result given; & = joins results of further samples; ! = not active in a repeat; [ ] = dose if it differs, or a comment. Unless noted, calls follow the shape of the dose curve; as a rule, active = well fitted curve in the direction sought with a large enough effect; inconclusive = small, poorly fitted or top-dose-only effect, or another doubt; inactive = no such curve, though single readings can be large; an effect the other way counts as inactive or inconclusive. Potency is read from the fitted curve at half-maximal effect.

(1) Cc1ccc2oc(=O)c3cc(C(=O)Nc4ccccc4C(N)=O)sc3c2c1
(2) O=c1cccc2n1Cc1cc3ccccc3nc1-2
(3) O=C(Cc1cccc(C(F)(F)F)c1)NCC(c1ccco1)N1CCCCC1 (stereo not given)
(4) CN(C)c1c(F)cc(-c2nn[nH]n2)cc1F
(5) Cc1ccc(NC(=O)c2ccc(NC(=O)N3CCSc4ncccc43)cc2)cc1Cl
(6) CC1CCc2sc(NC(=O)C3CC(Cl)=CCC3C(=O)O)c(C#N)c2C1 (stereo not given)
(7) CCOc1cc(CNC2CCCC2)cc(Cl)c1OCc1ccccc1
(8) CCC(C)NC(=O)c1cnn(-c2ccc(Cl)cc2)c1C1CCN(C(=O)OC(C)(C)C)CC1 (stereo not given)
(9) COC(=O)c1ccc(CSc2nc3c(c(=O)n2-c2ccccc2)SCC3)o1
(10) Cc1cc(C)c(NS(=O)(=O)c2cc(-c3cnc(C4CC4)o3)ccc2C)c(C)c1
entry no.	1	2	3	4	5	6	7	8	9	10
RE007 growth inh	·	-6%	-6%	7%	·	8%	6%	·	0%	·
SARS PLP yeast	·	-9%	-3%	0%	·	1%	-6%	·	11%	·
MARV entry inh	12%[46.1 µM]	1%	?	·	·	-24%[46.1 µM]	?	·	7%	·
Cruzain Triton	-0.3%	6.7%	·	·	-11%	·	3.8%	-1.7%	-9.0%	-0.1%
Cruzain noTriton	-5%	?	·	·	-6%	·	1%	9%	-1%	-12%
NS1 function inh	·	-12%	·	6%	·	13%	-25%	·	8%	·
StopGo reporter	12%	75%[activator]	-2%	42%[activator]	?	1%	-12%	-15%	-4%	11%
Lassa entry inh	2%[46.1 µM]	?	-2%	·	?	5%[46.1 µM]	?	-20%[46.1 µM]	6%	-17%[46.1 µM]

The final two compounds of the part before come first, to join the parts.
(9) COC(=O)c1ccc(CSc2nc3c(c(=O)n2-c2ccccc2)SCC3)o1
(10) Cc1cc(C)c(NS(=O)(=O)c2cc(-c3cnc(C4CC4)o3)ccc2C)c(C)c1
(11) COc1ccc(NCC(=O)N/N=C/c2c(C)nn(Cc3ccccc3)c2Cl)cc1
(12) COC(=O)c1c(NC(=O)c2cnccn2)sc2c1CCC2
(13) COc1ccc(Br)cc1CNC(=O)c1cc(=O)[nH]c2ccc(S(=O)(=O)N3CCCC3)cc12
(14) N#CC1=C(N)Oc2cc(N)ccc2C1c1cccnc1 (stereo not given)
(15) O=C1CC(N2C(=O)/C(=C/C=C/c3ccccc3)SC2=S)C(=O)N1c1ccccc1 (stereo not given)
(16) N#CC1(NC(=O)COC(=O)c2cc([N+](=O)[O-])ccc2N2CCOCC2)CCCCC1
(17) COc1ccc(NC(=O)CN2C(=O)C(c3ccccc3)=NC23CCCCCC3)cc1
(18) O=C(NCCCn1ccnc1)c1ccc(Br)s1
(19) O=C(c1ccc(-c2cc(Cl)ccc2Cl)o1)N1CCOCC1
(20) CCCCc1cc(=O)oc2cc(C)cc(O)c12
entry no.	9	10	11	12	13	14	15	16	17	18	19	20
RE007 growth inh	0%	·	·	42%	·	4%	27%	17%	38%	5%	0%	-3%
SARS PLP yeast	11%	·	-5%	-6%	·	25%	2%	-2%	-21%	2%	0%	-40%
MARV entry inh	7%	·	?	-14%	·	16µM*	?	1%	-6%	·	-2%[46.1 µM]	-24%
Cruzain Triton	-9.0%	-0.1%	-5.6%	3.2%	0.5%	-3.2%	-5.9%	·	-6.9%	·	·	-14%
Cruzain noTriton	-1%	-12%	-29%	13%	-13%	19%	16µM*	·	-1%	·	·	9%
NS1 function inh	8%	·	?	-2%	·	14%	28%	·	-13%	5%	-32%	-190%
StopGo reporter	-4%	11%	-21%	-7%	-1%	-21%	-26%	3%	-25%	-6%	14%	-22%
Lassa entry inh	6%	-17%[46.1 µM]	7.9µM*	9%	?	-1%	10%	-14%[46.1 µM]	?	·	6%	-20%

(21) O=C(c1ccc(COc2ccccc2Cl)o1)N1CCN(Cc2ccc3c(c2)OCO3)CC1
(22) CCN(C(=O)CN1C=NS(=O)(=O)c2ccccc21)c1ccccc1
(23) CC(NC(=O)c1cc(COc2ccccc2)on1)c1nccs1 (stereo not given)
(24) CCOC(=O)[C@@H]1[C@H]2COc3ccc(Br)cc3[C@H]2N2C(=O)N(c3cccc(F)c3)C(=O)[C@]12C
(25) COc1cccc(C(=O)Nc2ccncc2)c1OC
(26) O=C(Nc1ccccc1C(F)(F)F)c1cc(S(=O)(=O)N2CCC3(CC2)OCCO3)ccc1F
(27) Cc1ncc(CSCC(=O)Nc2cc(C(F)(F)F)ccc2Cl)c(CO)c1O
(28) Cc1c(Cl)c(C(F)(F)F)nn1CC(=O)NCc1ccco1
(29) Cc1cccc(S(=O)(=O)c2c(N)n(-c3ccccc3)c3nc4ccccc4nc23)c1
(30) Clc1ccc(CSc2nccn2Cc2ccccc2)cc1
entry no.	21	22	23	24	25	26	27	28	29	30
RE007 growth inh	-11%&-7%	5%	-15%	11%	-10%	-9%	-17%	-12%	-2%	-41%
SARS PLP yeast	-7%&-1%	-9%	1%	-2%	1%	?	0%	3%	26%	3%
MARV entry inh	?	2%	?	·	·	7%	-2%[46.1 µM]	?	-24%	?
Cruzain Triton	-4.8%	2.8%	·	·	·	-5.3%	·	·	12%	-5.2%
Cruzain noTriton	20%	14%	·	·	·	?	·	·	?	0%
NS1 function inh	-52%&-4%	-6%	-15%	-2%	-5%	-16%	0%	·	19%	-40%
StopGo reporter	35µM*!	-4%	13%	-8%	-21%	0%	3%	-15%	68%[activator]	-26%
Lassa entry inh	?	4%	?	·	·	?	-21%[46.1 µM]	19%[46.1 µM]	4%	-24%

(31) COc1ccc(NC(=O)CSCC(=O)NCc2ccco2)cc1
(32) COc1ccc(C(C(=O)NC2CCCCC2)N(Cc2ccco2)C(=O)c2snc(C(N)=O)c2N)cc1 (stereo not given)
(33) COc1ccc(O)c(/C=N/NC(=S)Nc2cccc(S(=O)(=O)N(C)C)c2)c1
(34) COc1ccc(S(=O)(=O)N2CCCCC2)cc1NCC(=O)Nc1ccc(C)cc1
(35) COc1ccc(NCc2nnc(SCC#N)n2-c2ccccc2OC)cc1
(36) CS(=O)(=O)c1ccc2nc(NC(=O)CN3C(=O)C4CC=CCC4C3=O)sc2c1 (stereo not given)
(37) Cc1ccc(CNC(=O)CCc2c(C)nn(-c3ccc(N4CCCC4)nn3)c2C)cc1
(38) COc1ccc(C(=O)C2CCCN(C(=O)c3cccc(N4CCCC4=O)c3)C2)cc1OC (stereo not given)
(39) O=C(COC(=O)CNC(=O)C1CCCCC1)Nc1ccccc1OC(F)F
(40) CC(=O)c1cccc(-n2nnnc2SCC(=O)Nc2cccc(NC(=O)c3ccco3)c2)c1
entry no.	31	32	33	34	35	36	37	38	39	40
RE007 growth inh	4%	27%	15%	5%	7%	-8%	·	6%	0%	17%
SARS PLP yeast	-1%	6%	?	0%	2%	0%	·	-3%	7%	-3%
MARV entry inh	1%	-23%[46.1 µM]	3.7µM*	-2%[46.1 µM]	?	?	·	·	29%	4%
Cruzain Triton	·	·	-18%	·	-1.7%	·	0.3%	·	·	2.4%
Cruzain noTriton	·	·	3%	·	-7%	·	-1%	·	·	-16%
NS1 function inh	·	-11%	?	-6%	2%	·	·	6%	·	-10%
StopGo reporter	-2%	-24%	0%	-29%	-29%	3%	9%	-1%	-16%	-29%
Lassa entry inh	-1%	?	4.6µM*	?	-9%	?	-3%[46.1 µM]	·	3%	5%

Fetched by compound from above, four records:
(38) COc1ccc(C(=O)C2CCCN(C(=O)c3cccc(N4CCCC4=O)c3)C2)cc1OC (stereo not given)
(40) CC(=O)c1cccc(-n2nnnc2SCC(=O)Nc2cccc(NC(=O)c3ccco3)c2)c1
(34) COc1ccc(S(=O)(=O)N2CCCCC2)cc1NCC(=O)Nc1ccc(C)cc1
(33) COc1ccc(O)c(/C=N/NC(=S)Nc2cccc(S(=O)(=O)N(C)C)c2)c1
entry no.	38	40	34	33
RE007 growth inh	6%	17%	5%	15%
SARS PLP yeast	-3%	-3%	0%	?
MARV entry inh	·	4%	-2%[46.1 µM]	3.7µM*
Cruzain Triton	·	2.4%	·	-18%
Cruzain noTriton	·	-16%	·	3%
NS1 function inh	6%	-10%	-6%	?
StopGo reporter	-1%	-29%	-29%	0%
Lassa entry inh	·	5%	?	4.6µM*

More results.
(41) CC(C)(NS(=O)(=O)OCC(Cl)(Cl)Cl)c1ccccc1
(42) Cc1ccccc1N(C(=O)Cn1nnc(-c2cccs2)n1)C(C(=O)NCCC(C)C)c1ccco1 (stereo not given)
(43) O=C(Nc1ccc2c(c1)OCO2)C(c1ccccc1)N1CCN(C(=O)c2ccco2)CC1 (stereo not given)
(44) COC(=O)NC(=C(Cl)Cl)P(=O)(c1ccccc1)c1ccccc1
(45) O=c1c(C=NCCN2CCNCC2)c(O)n(C2CCCCC2)c(=O)n1C1CCCCC1
(46) COc1ccccc1C1C(C(=O)c2sc(C)nc2C)=C(O)C(=O)N1CCN1CCOCC1 (stereo not given)
(47) O=C(c1cc(-c2ccc(F)cc2)on1)N1CCCCCC1
(48) CC(=O)c1c(C)[nH]c(C(=O)Nc2cccc(C)n2)c1C
entry no.	41	42	43	44	45	46	47	48
RE007 growth inh	9%	8%	-4%	3%	-8%	16%	1%	-7%
SARS PLP yeast	-9%	-8%	4%	1%	-1%	3%	2%	-2%
MARV entry inh	·	?	2%[46.1 µM]	·	21µM*	14%	?	·
Cruzain Triton	·	-0.5%	8.1%	·	-2.7%	1.7%	·	·
Cruzain noTriton	·	4%	-2%	·	9%	-7%	·	·
NS1 function inh	-33%	23%	-30%	-1%	10%	-6%	5%	-12%
StopGo reporter	11%	25%	12%	-14%	-17%	-4%	8%	-12%
Lassa entry inh	·	?	-2%	·	17%[14.3 µM]	10%	?	·

Bioassay records (PubChem BioAssay)
